# Compound activity from PubChem BioAssay.
# Bfl-1 A1 inh = caspase 3/7 activation in MEF A1-2A-BIM cells, primary screen, A1 inhibitor project, cell-based, luminescence, HTS; Caspase-Glo 3/7 luminescence, 3 h; percent of clofoctol response, vehicle zero; 330,000 tested, 0.066% active; AID 2462, 2010; caspase activation, % (concentration not given with the values);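 active = over half of replicate activation scores above 10%, or exactly half above 10 with the replicate mean above 10; inconclusive = replicate mean below 10 yet half the replicates above 10; inactive = over half of replicates below 10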;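 note: wells of about 30 µL received 50 nL stock; many hits fall short of the cut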
# Ecoli growth = E. coli growth inhibition, primary screen, OD600; 330,000 tested, 0.21% active; AID 1053175, 2014; OD600 absorbance (no concentration beside the values); Escherichia coli growth, 23 h; active compounds read low;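 active = OD600 absorbance below the run mean of sample wells minus 3.6 SD, in any replicate, cut at about 0.56 in these data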;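 note: stock transfer was 300 nL into about 60 µL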
# LANA-H2A inh = blockers of LANA interaction with H2A/H2B – biochemical, FP readout, HTS, primary screen. 320,000 tested, 0.6% active. Protein LANA1 (Human herpesvirus 8 type P (isolate GK18)), Q9QR71. cell-free LANA-H2A/H2B peptide, fluorescence polarization. inhibition, % (no concentration beside the values); in the data active = inhibition mostly above about 10%, no sharp cut-off; inactive = mostly below about 6.7%;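 note: stock transfer was 7.5 nL into about 10 µL; 0% = median of vehicle wells and 100% = median of positive control wells; one replicate is shown; the record names a cut of 25% in any replicate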
# Vif TR-FRET = inhibitors of Vif binding to APOBEC3G peptide, primary screen, biochemical, TR-FRET, GST-Vif 1-94, biotin-A3G peptide, dose response retest (AID 1117319); Virion infectivity factor (Human immunodeficiency virus type 1 group M subtype B (isolate …; TR-FRET GST-Vif / biotin-A3G peptide binding; higher % means a stronger effect; test concentration not given here; strong numbers were not always called active; inhibition, %, or IC50 in µM where a hit was titrated; 260,000 tested, 0.57% active;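 active = above the screen mean plus three standard deviations and confirmed in dose response; inconclusive = results disagree or hit not tested in dose response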;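 note: Vif residues 1-94 fused to GST binding biotinylated APOBEC3G peptide 110-148; 0% = full assay without inhibitor and 100% = GST in place of GST-Vif; retest series ran down from 100 µM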
# HNF4A DNA FP = change in binding of human HNF4A to DNA, primary screen, biochemical, fluorescence polarization, FITC-DNA; activity change, % at 10 µM; AID 1224865, 2016; 360,000 tested, 0.3% active; 1 h; in the data active = activity change above about 30%, passing the limit was not always enough;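 note: controls were the assay level and a saturating level of protein; the project sought stronger binding though the title names inhibitors; some compounds called inactive have numbers as strong as hits; positive values seem to mean higher polarization but the record does not say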
# Target sequence (P41235 whole entry, looked up): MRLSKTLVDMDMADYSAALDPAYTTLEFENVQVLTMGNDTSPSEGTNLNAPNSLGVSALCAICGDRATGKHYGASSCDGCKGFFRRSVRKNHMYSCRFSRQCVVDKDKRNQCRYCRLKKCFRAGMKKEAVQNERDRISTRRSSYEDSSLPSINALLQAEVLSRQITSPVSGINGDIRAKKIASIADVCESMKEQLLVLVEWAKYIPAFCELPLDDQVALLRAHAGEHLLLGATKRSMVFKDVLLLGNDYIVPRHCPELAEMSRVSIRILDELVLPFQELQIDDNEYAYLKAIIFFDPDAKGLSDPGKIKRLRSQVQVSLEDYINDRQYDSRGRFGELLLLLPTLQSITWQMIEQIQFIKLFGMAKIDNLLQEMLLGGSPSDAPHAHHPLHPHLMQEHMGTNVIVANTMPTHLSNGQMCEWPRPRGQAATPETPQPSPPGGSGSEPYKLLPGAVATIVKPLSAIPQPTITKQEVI
# UCH37 inh = inhibitors of human UCH37 deubiquitinase, primary screen, biochemical, Ub-AMC cleavage, fluorescence; Ubiquitin carboxyl-terminal hydrolase isozyme L5 (Homo sapiens), Q9Y5K5; purified proteasome/UCH37; inhibition, % (concentration not given with the values); 330,000 tested, 0.33% active; AID 588478, 2011;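 active = mean of two replicates above 20%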;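 note: 0% = compound-free wells with enzyme and 100% = wells lacking proteasome; stock transfer was 100 nL into about 20 µL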
#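 System: Proteasome-associated human UCH37 deubiquitinase; Input: 0.15 nM proteasome in added enzyme buffer; Also added: Ub-AMC substrate from 1 µM stock; Incubation: 30 min compound-proteasome preincubation then 25 min substrate reaction, room temperature; Detection: fluorescence, ex 355 nm, em 460 nm; Read-out: % inhibition of Ub-AMC cleavage fluorescence; Benchmarks: no-proteasome and no-compound wells.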
# B2AR ag = beta2AR agonists driving receptor internalization, primary screen, cell-based, FAP fluorogen, flow cytometry | Beta-2 adrenergic receptor (Homo sapiens), P07550 | Am2.2-beta2AR cells; reference of the scale not given here | response, % (no concentration beside the values) | 340,000 tested, 0.43% active;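 active = response above a set limit, near 3 SD of response in nonfluorescent compounds, cut at about 42% in these data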;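 note: stock transfer was 100 nL into about 11 µL; a reference agonist was the positive control; negative values mostly stem from fluorescent compounds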
# Target sequence (P07550 whole entry, looked up): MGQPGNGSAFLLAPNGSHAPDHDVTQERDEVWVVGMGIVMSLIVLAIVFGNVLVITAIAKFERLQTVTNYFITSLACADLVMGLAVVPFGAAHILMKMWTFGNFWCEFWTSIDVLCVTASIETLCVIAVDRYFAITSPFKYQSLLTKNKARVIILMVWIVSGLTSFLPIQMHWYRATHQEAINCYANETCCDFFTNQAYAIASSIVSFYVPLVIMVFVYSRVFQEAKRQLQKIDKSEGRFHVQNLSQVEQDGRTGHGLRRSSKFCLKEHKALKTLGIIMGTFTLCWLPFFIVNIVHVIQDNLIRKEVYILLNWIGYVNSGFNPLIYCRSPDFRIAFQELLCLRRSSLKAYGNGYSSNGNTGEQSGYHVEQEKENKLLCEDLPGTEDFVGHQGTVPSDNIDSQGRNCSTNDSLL
# An asterisk follows results filed as active; ? = inconclusive; . = not tested or not shown.
SMILES,Bfl-1 A1 inh,Ecoli growth,LANA-H2A inh,Vif TR-FRET,HNF4A DNA FP,UCH37 inh,B2AR ag
O=C(COC(=O)c1ccc(Cl)nc1)NCc1ccc(F)cc1,1.8,0.71,-1.7,.,-1.6,0.8,0
O=S(=O)(c1ccc(F)cc1)N1CCC(c2nc3ccccc3[nH]2)CC1,1.3,0.69,-0.3,-10%,1.6,5.0,-18
COc1ccc(-c2cc(=O)oc3cc(OCc4nn[nH]n4)ccc23)cc1,0.4,0.66,1.7,?,-2.4,-13,4
Nc1nonc1-n1nnc(C(=O)N/N=C/c2cccnc2)c1CSC1=NCCS1,0.2,.,1.6,12%,2.5,.,-11
Clc1ccccc1CSc1cc2c(nn1)-c1ccccc1CC2,-0.3,0.75,5.0,8%,-1.1,0.3,2
CC(=O)N1CCN(CC(=O)Nc2c(Cl)ccc(C)c2Cl)CC1,0.5,0.71,-5.1,7%,-0.5,4.7,18
CN(c1ccc(F)cc1)S(=O)(=O)c1ccc(Cl)c(C(=O)NCC2(N3CCOCC3)CCCCC2)c1,.,0.67,.,.,1.0,6.1,-4
COCCNC(=O)Cn1nc(-c2ccccc2OC)ccc1=O,0.8,0.77,0.6,22%,-0.5,3.0,1
COc1ccc(NC(=O)/C(N=Nc2ccc(Cl)c(S(=O)(=O)Nc3ccc(Cl)cc3)c2)=C(\C)O)cc1,-0.9,0.7,-1.3,-3%,3.9,5.7,1
O=C(Oc1ccccc1)N1CCN(c2ccc(F)cc2)CC1,0.3,0.71,-5.6,13%,-3.3,1.9,2
O=C(Cc1ccsc1)NNC(=O)c1ccc(F)cc1,-0.6,0.67,0.3,2%,-0.2,-1.4,-2
CC[C@@]12C(=O)N(c3cccc(C)c3)C(=O)N1[C@H](c1ccc(OC)cc1)[C@@H]1C(=O)N(C(C)(C)C)C(=O)[C@@H]12,-0.3,.,-1.2,.,1.4,3.4,-10
O=C(Cn1cnc2c(oc3ccccc32)c1=O)N1CCCc2ccccc21,1.3,0.66,1.5,-7%,1.4,1.1,-2
COc1ccc(/C=C(\C#N)C(=O)Nc2cccc3ncccc23)cc1OC,0.3,0.64,5.8,32%,4.1,5.3,4
CC(C)Cc1nnc(NC(=O)CC(C)c2ccccc2)s1 (stereo not drawn),0.6,0.67,-3.1,.,2.4,1.3,2
CCC(=O)N(Cc1cc(=O)[nH]c2ccccc12)c1ccccc1,?,0.68,-2.4,-6%,-2.9,1.3,-13
O=C(NCc1ccon1)C1CCC(=O)N(CCc2ccc(Cl)cc2)C1 (stereo not drawn),0.6,0.66,5.0,4%,0.4,0.5,0
COc1cc2c(cc1OC)CN(C(=O)CCNS(=O)(=O)c1ccc(Br)cc1)CC2,0.8,0.66,0.6,18%,0.1,3.1,-2
Cc1ccc(S(=O)(=O)Nc2cccc3cccnc23)cc1,-0.1,.,2.6,-5%,4.6,.,45*
Cc1nnc(SC(C)C(=O)Nc2ccc3ccccc3c2)n1C (stereo not drawn),1.1,0.65,-0.7,.,0.5,-0.3,9
COCCNC(=O)C12CC3CC(C1)CC(c1ccccc1)(C3)C2,0.6,0.66,1.0,.,6.4,5.0,2
CC(C)(C)c1ccc(C(=O)N2CCNCC2)cc1,-0.2,0.64,2.9,-6%,-0.5,0.2,3
O=C1[C@@H](Oc2ccccc2)[C@@H](c2ccccc2)N1c1cccnc1,.,0.73,.,1%,-6.4,0.9,17
CCOc1ccc(NC(=O)CN(C)C(=O)c2c(-c3ccccc3Cl)noc2C)cc1OCC,0.2,0.7,-0.5,3%,-0.6,-0.9,5
COc1ccccc1N1CCN(C(=O)c2ccc3nc[nH]c3c2)CC1,0.7,0.64,0.4,0%,-6.1,3.3,9
COc1ccc(C2Nc3ccccc3NC3=C2C(=O)CC(C)(C)C3)cc1OC (stereo not drawn),1.2,0.7,-2.1,.,-0.2,7.7,4
CC1=C(C(=O)OCc2ccccc2)C(c2ccc([N+](=O)[O-])cc2)NC(=O)N1C (stereo not drawn),0.7,0.67,2.9,.,5.3,2.4,-6
S=C(NCc1ccccc1)NCc1cccc(Cl)c1,-0.5,0.64,-0.2,0%,-1.8,2.7,-9
CCOc1cc(C)c(S(=O)(=O)N2CCCCC2)cc1C,1.8,0.71,-0.3,3%,1.9,3.2,-8
COc1ccccc1N1CCN(C(=O)C2CCN(C(=O)c3ccc(C(C)(C)C)cc3)CC2)CC1,1.0,0.71,-5.2,2%,1.0,-1.7,3
O=C(Nc1ccccc1C(=O)O)c1ccc(Cl)c(S(=O)(=O)N2CCOCC2)c1,0.6,0.68,-0.3,3%,2.5,2.6,1
COC(=O)c1ccccc1NCCO,-0.1,0.67,0.4,20%,0.0,-485,5
COc1cccc(-n2nnc3c(=O)n(Cc4ccc(Br)cc4)cnc32)c1,0.5,0.74,4.4,-1%,0.8,1.2,-1
COc1ccc(S(=O)(=O)Nc2c(C)c(C)cc3c2ncn3C)cc1,-0.4,0.66,0.2,0%,-0.7,1.8,-3
CCC(C)(C(=O)NC1CCCC1)N(C(=O)CNC(C)=O)c1ccccc1 (stereo not drawn),1.2,0.77,5.7,-2%,-1.9,-1.2,0
COc1cc(NC(=O)CCc2nnc3ccc(N4CCC(C)CC4)nn23)cc(OC)c1,0.7,0.71,-0.9,.,6.0,-2.9,-14
CC(C)N(Cc1cnn(C)c1)Cc1nc(COc2ccccc2)no1,0.7,0.71,-2.3,-6%,-1.3,2.5,-2
CCN(C(=O)COc1ccccc1)c1nnc(-c2cccnc2)s1,-0.4,0.71,0.3,-10%,3.2,3.0,-11
CCOc1ccc(C(=O)Nc2nccs2)cc1[N+](=O)[O-],0.0,0.66,-1.5,.,2.7,5.7,-10
NC(=S)N/N=C/c1ccc(-n2nncc2-c2ccc(Cl)cc2)cc1,0.7,.,-3.2,.,-0.4,.,-9
COc1cc(C2N(c3ccc(Cl)cc3)C(=O)C3CCCN32)cc(OC)c1OC (stereo not drawn),0.7,0.73,-2.6,-7%,9.6,2.5,-4
COc1ccccc1CNC(=O)C1CCN(S(=O)(=O)c2ccc3c(c2)OCCO3)CC1,-0.3,0.69,3.4,-3%,2.7,0.2,0
O=[N+]([O-])c1ccc2nc(-c3ccccc3)[nH]c2c1,-7.6,0.64,0.9,5%,3.2,9.1,-12
Nc1nc(CSc2nc3ccccc3s2)nc(Nc2ccccc2)n1,0.2,.,0.6,2%,.,.,.
O=C(COC(=O)c1ccc[n+]([O-])c1)Nc1cc([N+](=O)[O-])ccc1Cl,-0.3,0.65,0.1,-2%,4.0,4.1,-2
CC(C)C(O)(C#CCN1CCCCCC1)c1ccccc1 (stereo not drawn),0.7,.,-3.3,3%,0.2,.,-4
CSCC[C@H](NC(=O)Nc1ccc(C)cc1)C(=O)O,0.7,0.67,-11,?,0.7,1.7,2
O=C(COC(=O)c1ccc(O)cc1)Nc1nccs1,-5.9,0.61,2.2,7%,2.6,1.6,-13
O=C(c1ccc(F)cc1)C1CCN(C(=S)Nc2ccc(F)cc2)CC1,0.2,0.64,0.7,1%,-0.5,2.4,-3
COc1ccc(-n2c(=S)[nH]c3cc(C(=O)Nc4cccc(C)c4)ccc3c2=O)cc1,-0.1,0.7,0.1,-6%,2.6,3.8,-8
O=C(NCCCN1CCCC1=O)c1cccs1,.,0.66,.,24%,0.3,1.4,-7
CCCN(CCC)S(=O)(=O)c1ccc(C(=O)Nc2nnc(COC)o2)cc1,0.8,0.73,1.3,9%,-6.6,4.2,10
Cc1ccc(S(=O)(=O)N2CCN(c3ncccn3)CC2)cc1C,-0.9,.,-0.1,.,3.9,.,1
Cc1ccc(NC(=O)NCCCN2CCCC2=O)cc1,1.0,0.73,-3.0,-1%,1.4,1.2,-4
CCCC(Oc1ccc(Br)cc1)c1nc2c3cc(OC)c(OC)cc3nc(=S)n2[nH]1 (stereo not drawn),-0.5,0.69,9.4,-12%,3.9,-3.8,13
CCOC(=O)Oc1ccc(/C=C2\N=C(C)OC2=O)cc1,0.2,0.69,0.4,0%,-0.2,5.9,8
CCn1c(CNC(=O)c2ccccc2F)cc2cc(C)ccc21,1.1,0.61,-4.2,.,-0.4,-7.7,-5
O=C(Nc1ccc(F)cc1)Nc1ccc(NC(=O)c2ccccc2O)cc1,0.2,0.67,4.2,9%,-0.1,-87,1
O=C(NCc1ccc2c(c1)OCO2)C1CCC(CNc2c(N3CCCCC3)c(=O)c2=O)CC1 (stereo not drawn),0.0,0.77,12,3%,1.4,6.8,0
Cc1ccccc1N(CC(=O)NCc1ccc2c(c1)OCO2)C(=O)C1CSC(=O)C1 (stereo not drawn),0.6,0.7,-4.5,.,-1.3,4.4,-8

# Later entries.
SMILES,Bfl-1 A1 inh,Ecoli growth,LANA-H2A inh,Vif TR-FRET,HNF4A DNA FP,UCH37 inh,B2AR ag
CCOC(=O)Cn1nc(C)n(-c2ccc(C(C)C)cc2)c1=O,0.1,0.67,3.9,?,-3.1,0.8,13
CCN(c1ccccc1)c1cc2ccccc2c(=O)[nH]1,-2.2,.,1.4,.,-2.2,.,-1
COC(=O)CN1C(=O)[C@H]2[C@@H](c3ccc(C)o3)N3C(=O)CN(Cc4ccccc4)C(=O)[C@@]3(C)[C@H]2C1=O,0.2,.,3.8,.,2.2,0.0,-7
CCCc1nnc(SCC(=O)Nc2ccc(C(=O)OCC)cc2)o1,-0.8,0.69,0.9,.,1.3,1.1,-3
Cc1nc(SCc2ccccc2)n[nH]1,-1.7,0.72,-1.0,-13%,-2.5,2.5,3
O=C(CSc1nnc(-c2ccc(O)cc2)o1)Nc1cccc(O)c1,0.2,0.64,-5.1,.,0.6,1.8,2
CC(C)NC(=O)NC(=O)CSc1nnc(COc2ccccc2Cl)o1,1.0,0.78,-0.2,8%,-1.2,6.0,4
c1ccc2c(c1)OCC(c1nn3c(Cn4nnc5ccccc54)nnc3s1)O2 (stereo not drawn),0.1,0.67,7.5,5%,-2.4,4.7,3
CCCSc1nnc(NC(=O)Nc2ccc(F)cc2)s1,0.7,0.67,-13,0%,-2.6,4.1,26
COC(=O)c1cc(COc2ccc3c(c2)oc(=O)c2ccccc23)c(C)o1,-0.5,0.75,0.4,-5%,0.3,-20,14
Cn1c(=O)c2[nH]c(SCc3ccccn3)nc2n(C)c1=S,-0.1,.,-3.1,5%,.,.,.
CC1=NN(c2ccc(C)c(C)c2)C(=O)C1C(c1cccc(O)c1)C1C(=O)N(c2ccc(C)c(C)c2)N=C1C (stereo not drawn),-0.4,0.7,-1.1,-1%,5.4,0.8,11
Oc1[nH]c2ccccc2c1C1=NCCCCC1,-0.5,0.6,6.1,.,1.4,9.8,-6
N#Cc1ccc(Oc2nc(C(N)=O)cc(-c3ccccc3)n2)cc1,0.2,0.7,-1.2,-6%,2.0,-0.9,-11
c1ccc2c(CCNc3ncnc4nc[nH]c34)c[nH]c2c1,-0.1,0.67,0.4,2%,-0.6,3.0,0
